Assay outcomes deposited in PubChem by National Center for Advancing Translational Sciences (NCATS).
N370S GC = qHTS Assay for Inhibitors and Activators of N370S glucocerebrosidase as a Potential Chaperone Treatment of Gaucher Disease. N370S GC spleen homogenate, 4MU-glucoside fluorescence. Lysosomal acid glucosylceramidase (Homo sapiens), P04062. Potency, µM (doses to about 59.4 µM), inactives show at the top dose activity change, negative = inhibition, hits mostly inhibitors. AID 2101, 2009. actives 0.092% (n = 330,000);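 also: 0% = full enzyme activity and -100% = no enzyme basal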
FEN1 inh = qHTS Assay for the Inhibitors of Human Flap endonuclease 1 (FEN1); Recombinant FEN1 flap cleavage, fluorescence, 15 min; Potency, µM (doses to about 114 µM), for inactives: top-dose activity change, negative = inhibition, usual class: inhibitors; actives 0.35% (n = 390,000); AID 588795, 2011; also: nearly all actives have a fitted effect of over 65% in size
Target sequence (P39748 whole entry, looked up): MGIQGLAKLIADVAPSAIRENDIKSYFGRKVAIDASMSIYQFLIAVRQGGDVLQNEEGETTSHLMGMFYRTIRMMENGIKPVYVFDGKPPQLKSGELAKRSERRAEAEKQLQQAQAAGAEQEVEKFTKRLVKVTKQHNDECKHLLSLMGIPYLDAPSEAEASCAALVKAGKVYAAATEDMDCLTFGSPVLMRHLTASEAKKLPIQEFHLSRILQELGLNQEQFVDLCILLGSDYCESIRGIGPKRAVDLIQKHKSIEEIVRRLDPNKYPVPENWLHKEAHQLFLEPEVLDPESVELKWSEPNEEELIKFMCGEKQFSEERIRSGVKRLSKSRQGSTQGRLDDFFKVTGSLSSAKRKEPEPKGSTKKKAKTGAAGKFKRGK
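Steps: FEN1 (10 nM) dispensed; compound added by pin tool; 15 min at room temperature; substrate added to 50 nM final; reads at 0 min and 15 min; data normalized and fitted (four-parameter Hill).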
Starred values were filed as active, the others as inactive; ? = inconclusive; / = no result given; & = joins results of further samples; [ ] = remark or other dose. Calls follow the shape of the dose curve; as a rule, active = well fitted curve in the direction sought with a large enough effect; inconclusive = small, poorly fitted or top-dose-only effect, or another doubt; inactive = no such curve, though single readings can be large; an effect the other way counts as inactive or inconclusive. Unless noted, % is scaled to controls: 0 for no effect and ±100 for the full control effect; potency is read from the fitted curve at half-maximal effect. These rows are one share of the data, and most or all hits are left out here.

SMILES	N370S GC	FEN1 inh
Cc1ccc2nc(CSc3nnc(Nc4ccccc4C)s3)cc(=O)n2c1	9%	6%
COc1ccccc1C1NC(=O)NC(C)=C1C(=O)OC1CCC(C)CC1 (configuration not stated)	-15%	3%
CCOC(=O)N1CCN(C(=O)CN2C(=O)NC(C)(c3ccc4ccccc4c3)C2=O)CC1 (configuration not stated)	/	1%
CCc1cccc(NC(=O)CCCCCC2NC(=O)NC2C)c1 (configuration not stated)	14%	-1%
Cc1nc2c(ccc3nc(NC(=O)Cc4cccc5ccccc45)sc32)s1	2%	7%
COc1cc(C(=O)NCCc2ccc(S(=O)(=O)N3CCCC3)cc2)cc(OC)c1OC	3%	3%
C[N+](C)(CCOc1ccccc1)Cc1ccccc1 (tested in a mixture with another compound)	5%	-4%
O=C1C2ON(c3ccccc3)C(c3cccnc3)C2C(=O)N1Cc1ccccc1 (configuration not stated)	-6%	7%
COc1ccccc1-c1nnc(SCC(=O)N2CCC(C)CC2)o1	-18%	-4%
C=CCSCC1Nc2cc(Cl)c(S(N)(=O)=O)cc2S(=O)(=O)N1 (configuration not stated)	-4%&-8%	0%
O=S(=O)(Nc1ccc2c(c1)OCCO2)c1ccc2oc3ccccc3c2c1	-2%	-19%
CCCOc1ccc(C(=O)Nc2ccc(S(=O)(=O)Nc3cc(C)nc(C)n3)cc2)cc1	-24%	-3%
CCc1ccc(C(=O)N2CCN(c3ccc(F)cc3)CC2)s1	3%	8%
COc1ccc(CN2CCN(C(=O)C3CCN(S(=O)(=O)c4cccs4)CC3)CC2)c(OC)c1OC	1%	-17%
Cc1ccc(Nc2nc(N)nc(CSCCO)n2)cc1	7%	-1%
COc1cc(-c2nc(C)c(C(C)=O)n2O)ccc1OCC(=O)Nc1ccc(F)cc1	-14%	2%
C=CCn1c(=O)c2ccccc2n2c(SCC(=O)N3CCCc4ccccc43)nnc12	-11%	-3%
O=C(Cc1ccccc1)Nc1ccc(C(=O)Nc2ccc(O)cc2)cc1	-1%	6%
O=C(c1ccc(F)cc1)n1nc(-c2cccnc2)nc1NCc1ccccc1	/	0%
Cc1cccc(CN2CCN(CC(=O)N3CCCC3)C2=O)c1	-5%	3%

Of the compounds above, these contain a thiophene ring, fused or not:
SMILES	N370S GC	FEN1 inh
CCc1ccc(C(=O)N2CCN(c3ccc(F)cc3)CC2)s1	3%	8%
COc1ccc(CN2CCN(C(=O)C3CCN(S(=O)(=O)c4cccs4)CC3)CC2)c(OC)c1OC	1%	-17%

(more compounds)
SMILES	N370S GC	FEN1 inh
COc1ccc(CCNC(=O)c2ccc3c(c2)OCO3)cc1	-2%	-10%
CCOC(=O)N1CCN(C2=C(NS(=O)(=O)c3ccc(NC(C)=O)cc3)C(=O)c3ccccc3C2=O)CC1	-17%	?
O=C(Cn1nc(C(=O)O)c2ccccc2c1=O)Nc1cc(Cl)cc(Cl)c1	10%	-1%
COc1cc(/C=C/c2nc(C#N)c(NC(C)c3ccccc3)o2)cc(OC)c1OC (configuration not stated)	/	-24%
CCC(=O)Nc1ccc2c(c1)C(=O)c1ccccc1C2=O	0%	-7%
COc1ccc(CCNC(=O)C2(C)CCC(=O)N2Cc2ccc3c(c2)OCO3)cc1OC (configuration not stated)	10%	8%
O=C(NCc1ccco1)/C(=C/C=C/c1ccccc1)NC(=O)c1ccco1	5%	-6%
CCCCOc1ccc(C(=O)N/C(=C/C=C/c2ccccc2)C(=O)O)cc1	3%	-7%
CCCn1c(CNC(=O)c2ccc(F)cc2)nc2ccccc21	/	-3%
CCOC(=O)C(CC)/C(C)=N\NC(=O)c1cccc(C)c1 (configuration not stated)	-6%	-13%
CN(C)N=Nc1nc[nH]c1C(N)=O	-12%	-4%
CNC(=O)CC1C(=O)N(Cc2ccccc2)C(=S)N1NC(=O)c1cccc(F)c1 (configuration not stated)	-5%	-1%
O=C(CCNC(=O)c1ccccc1)Nc1ccc(S(=O)(=O)Nc2ncccn2)cc1	/	6%
CC(C)C(=O)Nc1cccc(C(=O)OCC(=O)c2ccc(Cl)cc2Cl)c1	/	7%
COc1cccc(NC(=O)c2oc3ccccc3c2NC(=O)c2ccc(F)c(F)c2)c1	/	14%
CCc1nccn1S(=O)(=O)c1ccc2ccc(C)cc2c1	5%	-3%
CC(C)(C)C(=O)CSc1ncnc2c1cnn2-c1ccccc1	3%	-3%
CNC(=O)CN(c1cccc(Br)c1)S(C)(=O)=O	-6%	-3%
COC(=O)c1ccc(OC)c(OC)c1Cl	3%	9%
O=C(CSc1n[nH]c(-c2ccccn2)n1)Nc1cccc(Cl)c1	?	-8%
COCCN(Cc1ccccc1)C(=S)Nc1ccc(Cl)cc1	14%	6%
Cc1cc(C)n(CCCNC(=O)CN(C)S(=O)(=O)c2ccc(Cl)cc2)n1	-4%	-4%
CC(=O)Nc1ccc(S(=O)(=O)NCCC(=O)OCC(=O)c2cccc(Br)c2)cc1	-17%	-6%
Cc1cc(C)cc(N(CC(=O)NCc2ccc3c(c2)OCO3)C(=O)CCC(=O)Nc2ccccn2)c1	-24%	-2%
Cc1nn(-c2ccccc2)c(C)c1/C=N/n1c(-c2ccc(C(C)(C)C)cc2)n[nH]c1=S	21%	-19%
CCN(CC)S(=O)(=O)c1ccc(N2CC(C(=O)NCCC3=CCCCC3)CC2=O)cc1 (configuration not stated)	/	19%
COC(=O)[C@]1(C)N[C@H](CN(C)C(=O)Nc2ccccc2)[C@@H]2C(=O)N(C)C(=O)[C@@H]21	/	20%
O=C(COc1cccc(C(F)(F)F)c1)NCC(c1cccs1)N1CCOCC1 (configuration not stated)	/	9%
COc1ccc(N2C(C)=CS/C2=C(/C#N)c2nnc(N3CCOCC3)n2-c2ccccc2)cc1	4%	11%
Cn1c(=O)c2c(nc(Br)n2Cc2ccccc2Cl)n(C)c1=O	2%	1%

Entries of single compounds from above. Order of screens: N370S GC | FEN1 inh
O=C(COc1cccc(C(F)(F)F)c1)NCC(c1cccs1)N1CCOCC1 (configuration not stated) across the screens: / | 9%
COC(=O)[C@]1(C)N[C@H](CN(C)C(=O)Nc2ccccc2)[C@@H]2C(=O)N(C)C(=O)[C@@H]21 across the screens: / | 20%
Cc1cc(C)cc(N(CC(=O)NCc2ccc3c(c2)OCO3)C(=O)CCC(=O)Nc2ccccn2)c1 across the screens: -24% | -2%

Following part:
SMILES	N370S GC	FEN1 inh
CCOC(=O)c1c(C)[nH]c(C)c1S(=O)(=O)N1CCCC(C(=O)Nc2ncccc2C)C1 (configuration not stated)	/	3%
Nc1cc(=O)[nH]c(SCC(=O)N2CCCCC2)n1	-1%	2%
Cc1ccc(-n2cc(CNCCCn3ccnc3C)c(-c3ccc(F)cc3)n2)cc1	-6%	-5%
CC(=O)N(CC(=O)O)c1ccccc1	10%	-3%
CC(C)n1nnnc1-c1ccc(Cl)cc1	2%	-1%
CC(=O)Nc1ccc(NC(=O)C(C)OC(=O)CC2CCCCC2)cc1 (configuration not stated)	3%	-2%
C=CCn1c(-c2cccc3ccccc23)n[nH]c1=S	6%	-1%
CCCCNC(=O)c1ccc2c(c1)NC(=O)C(CS(=O)(=O)Cc1ccc(C)cc1)N2 (configuration not stated)	/	2%
FC(F)(F)c1ccc(-c2nc(=S)[nH][nH]2)cc1	7%	0%
CCc1ccc(N2C(=O)C3NN=C(C(=O)OCc4ccccc4)C3C2=O)cc1 (configuration not stated)	-10%	0%
Cn1c(CCC(=O)Nc2ccc(N3CCOCC3)cc2)nc(=O)c2ccccc21	2%	2%
COc1ccc(C(=O)N/N=C\c2ccoc2)cc1	-16%	-13%
CC(C)Cc1nnc(NC(=O)CSc2ccccn2)s1	11%	-1%
NCC1CCC(N)C(O[C@@H]2C(O)[C@H](O[C@H]3OC(CO)C(O)C(N)C3O)[C@@H](N)C[C@H]2N)O1 (some centres not stated)	0%	/
Cc1noc(C)c1COc1cccc(C(=O)Nc2ccccc2N2CCOCC2)c1	-7%	10%
Cn1c(=O)c2c(-c3ccccc3)n(-c3ccccc3O)cc2n(C)c1=O	2%	-9%
CCOc1cccc(CNCCNC(=O)c2nonc2N)c1	-2%	13%&-8%
Cc1cccc(OCCn2cc(/C=N/NC(=O)c3ccncc3)c3ccccc32)c1	-13%	?
Cc1ccc(NC(=O)/C(=C/c2cccc([N+](=O)[O-])c2)NC(=O)C2CCCCC2)cc1	-10%	8%
CC1=CC(C)(C)N(C(=O)Nc2ccccc2)c2ccccc21	7%	34%
Cc1ccc(C(=O)N2CCCCCC2)cc1S(=O)(=O)Nc1ccccc1	2%	0%
COc1cc2c(cc1OC)C1=C(C#N)CN(C3CCCCC3)CN1CC2	1%	-12%
COC(=O)C1=C(C)N(C2CCCCC2)C(=O)C1	5%	0%
COc1ccc(CNC(=O)c2oc3ccc(S(=O)(=O)N4CCOCC4)cc3c2C)cc1	-10%	-1%
CC(C)=CCOc1ccc2ccc(=O)oc2c1	1%	4%
Cc1cc2occ(CC(=O)NNC(=O)c3ccccc3F)c2cc1C	-6%	-3%
COCCCNC(=O)c1ccc(C)c(-n2c(C)nc3cccnc32)c1	/	0%
CCCn1c(N)c(C(=O)CSc2nnc(-c3ccoc3C)n2C)c(=O)n(C)c1=O	/	-1%
CCOCCCNC(=O)C1CCN(S(=O)(=O)N(CC(C)C)CC(C)C)CC1	-3%	-12%
Cc1ccc(-n2c(C)c(C)c3c(N)ncnc32)cc1	-11%	-2%
Cc1ccc(OCC(=O)Nc2ccc(C(=O)OCc3cc(=O)n4ccsc4n3)cc2)cc1C	/	-6%
COc1ccc(OC)c(CCNC(=O)CN2C(=O)CC(C)(C)S(=O)(=O)c3ccccc32)c1	3%	7%
CC(=O)c1c(C)[nH]c(C(=O)CSc2ccc(F)cc2)c1C	-5%	-3%
O=C1N=C(N2CCN(c3cccc4ccccc34)CC2)S/C1=C/c1cccs1	17%	-4%
C=CC(=O)NC(C)(C)CCN1CCOCC1	-11%	4%
O=C(COc1ccc(F)cc1Br)NCC1COc2ccccc2O1 (configuration not stated)	/	-18%
O=C(c1ccc(Br)o1)N1CCN(C/C=C/c2ccccc2)CC1	6%	2%
CC(C)(CO)NCC(O)COc1ccc2c(c1)CCC2 (configuration not stated)	3%	-10%
CC(NC(=O)c1nn(C)c2c1CS(=O)(=O)c1ccccc1-2)c1ccccc1 (configuration not stated)	3%	6%
O=C(/C=C/c1cccc(F)c1)Nc1cc(S(=O)(=O)N2CCOCC2)ccc1Cl	/	-6%
CCCn1nc2cc(C(=O)NCc3ccc(OC)cc3)ccc2c1OCC	-5%[12.8 µM]	2%
COc1ccc(OC)c(NC(=O)c2nc(-c3ccccc3)oc2C)c1	14%	17%
CC12C=CC(=O)C=C1CCC1C2C(=O)C[C@@]2(C)C1CCC2(O)C(=O)CO (some centres not stated)	/	-5%
COC(=O)c1ccc(C)c(NC(=O)CSc2sc3c(O)cc(=O)[nH]c3c2C#N)c1	-4%	?
Cc1cc(C)cc(OCC(=O)Nc2ccc3c(c2)OCO3)c1	8%	5%
COc1cc2[nH]c(=S)n(CC3CCCO3)c(=O)c2cc1OC (configuration not stated)	3%	1%
CC(=O)c1cccc(NC(=S)N2CCC(Cc3ccccc3)CC2)c1	-5%	-15%
CCOc1ccccc1NC(=O)c1c(NC(=O)Cc2ccccc2)sc2c1CCCC2	/	-4%
Cc1ccccc1N(C)C(=O)c1coc(=O)c2ccccc12	7%	-1%
CC(Sc1nc2c(c(=O)[nH]1)CCCC2)C(=O)Nc1cc(C(F)(F)F)ccc1Cl (configuration not stated)	/	4%

New compounds follow.
SMILES	N370S GC	FEN1 inh
O=C1CN(C(=O)COC(=O)c2cccc(Br)c2)c2ccccc2N1	/	16%
O=C(O)c1csc(-c2cccc(Cl)c2)n1	-3%	21%
CCOP(=O)(c1ccc(N(C)C)cc1)C(O)c1ccc(Cl)cc1 (configuration not stated)	15%	-11%
CCOC(=O)C1=C(CSc2nc(C)ccc2C#N)OC(N)=C(C#N)C1c1cccc(OC)c1OC (configuration not stated)	10%	6%
COc1ccc(-c2ccc(CCC(=O)O)n2NC(=O)c2ccc(C(C)(C)C)cc2)cc1	8%	4%
O=C(CN1C(=O)NC2(CCc3ccccc32)C1=O)NCC(=O)Nc1ccc(F)cc1 (configuration not stated)	/	-15%
c1cncc(-c2noc(CC3CCCCC3)n2)c1	-12%	-3%
Cc1ccc(C(=O)Nc2nc(-c3ccccn3)cs2)s1	/	-10%
Cc1ccc(NC(=O)CN(C)C(=O)c2nn(C)c(=O)c3ccccc23)cc1	-8%	-1%
O=C(OCn1nnc2ccccc2c1=O)c1cc(-c2ccccc2)nc2ccccc12	-12%	1%
Cc1ccc(C(=O)Oc2cc(N)n(S(=O)(=O)c3ccc(F)cc3)n2)cc1	0%	-8%

Of the compounds above, 8 have a furan ring, fused or not.
SMILES	N370S GC	FEN1 inh
O=S(=O)(Nc1ccc2c(c1)OCCO2)c1ccc2oc3ccccc3c2c1	-2%	-19%
O=C(NCc1ccco1)/C(=C/C=C/c1ccccc1)NC(=O)c1ccco1	5%	-6%
COc1cccc(NC(=O)c2oc3ccccc3c2NC(=O)c2ccc(F)c(F)c2)c1	/	14%
COc1ccc(C(=O)N/N=C\c2ccoc2)cc1	-16%	-13%
COc1ccc(CNC(=O)c2oc3ccc(S(=O)(=O)N4CCOCC4)cc3c2C)cc1	-10%	-1%
Cc1cc2occ(CC(=O)NNC(=O)c3ccccc3F)c2cc1C	-6%	-3%
CCCn1c(N)c(C(=O)CSc2nnc(-c3ccoc3C)n2C)c(=O)n(C)c1=O	/	-1%
O=C(c1ccc(Br)o1)N1CCN(C/C=C/c2ccccc2)CC1	6%	2%
